From PubChem BioAssay
T cell modulator: T cell immune modulation candidate; calls only at 7 µM; actives 0.068% (n = 330,000); 2C CD8+ T cell-vesicle binding, flow cytometry; active compounds read low;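 active means response, share of CD8 T cells binding vesicles, and their 90th percentile fluorescence all below set limits, cut at about 80% in these data, passing the limit was not always enough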
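Assay system: 2C TCR transgenic mouse naive CD8+ T cells, MACS-purified | Read-out: CD8+ gate FL2 mean fluorescence as % of same-row positive control | Signal: High-throughput flow cytometry with anti-B7-1 and anti-CD8 staining | Timing: Binding step 1.5 h, 37 °C, antibody labelling 20 min, ice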
West Nile antiviral: inhibition of WNV-induced cytopathic effect – cell-based, CPE readout (AID 1621); West Nile virus-infected cells, CPE inhibition; higher % means a stronger effect; CPE inhibition, % at 10 µM, or IC50 in µM where a hit was titrated; actives 0.02% (n = 290,000); in the data active means a potency from the dose series; further: strong numbers were not always called active
GPR35 arrestin U2OS: inhibition of zaprinast-stimulated GPR35 beta-arrestin translocation – imaging, U2OS, beta-arrestin-GFP, zaprinast agonist, primary screen (AID 2058). actives 0.052% (n = 290,000). U2OS GPR35 beta-arrestin-GFP translocation imaging, zaprinast antagonism; higher % means a stronger effect. inhibition, % at 10 µM; hits with a dose series show IC50 in µM;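 active means inhibition of at least 50% with at least 30 cells and total cytoplasm GFP at most 10,000,000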
GPR55 activation: selective activators of receptor GPR55 – imaging, U2OS cells, beta-arrestin-GFP redistribution, primary screen (AID 1961); U2OS GPR55 beta-arrestin-GFP redistribution imaging; higher % means a stronger effect; activation, % at 10 µM, or EC50 in µM where a hit was titrated; actives 0.048% (n = 290,000);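 active means activation above 40% with more than 50 cells counted in the well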;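 further: U2OS osteosarcoma cells stably expressing GPR55 and beta-arrestin-GFP; plate controls were DMSO negative control for no effect and LPI positive control for full effect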
GPR55 LPI antagonism: inhibition of LPI-stimulated GPR55 beta-arrestin translocation – imaging, U2OS, beta-arrestin-GFP, LPI agonist, primary screen (AID 2013). U2OS GPR55 beta-arrestin-GFP translocation imaging, LPI antagonism; higher % means a stronger effect. inhibition, % at 10 µM; hits with a dose series show IC50 in µM. actives 0.13% (n = 290,000);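 active means spots per cell inhibited over 60%, with over 100 cells counted and total cytoplasm intensity under 500,000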;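 further: U2OS cells stably carrying GPR55 and arrestin-GFP stimulated by 5 µM LPI near EC80; imaged beta-arrestin-GFP aggregate spots per cell after agonist stimulation; plate controls were LPI-stimulated DMSO wells for no effect and DMSO wells without LPI for full effect; some results filed as inactive read as strong as hits; confirmed hits need IC50 under 10 µM and bright autofluorescent wells are also inconclusive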
T cell modulator vesicle-bound %: second read-out of T cell modulator, no call of its own (marks repeat the call); double positive events, %; measured here: CD8+ vesicle-bound cell fraction;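 binding gate set so that unloaded-vesicle control wells show 10% double positive cells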
* marks the source's active call; other numbers are inactive results; i = inactive; / = no result given; & = joins results of further samples. An excerpt. The share of hits here may be higher or lower than overall.

smiles	T cell modulator	T cell modulator vesicle-bound %	West Nile antiviral	GPR35 arrestin U2OS	GPR55 activation	GPR55 LPI antagonism
CN(C)CCCN1c2ccccc2Sc2ccc(Cl)cc21	i	34&20	-0.1%&0.7%	-3%&5%	0.4%&-0.1%	14%&24%
COc1ccc2cc([C@H](C)C(=O)O)ccc2c1	i	48	-0.3%	-9%	0.1%	3%
Nc1nc2c(ncn2COCCO)c(=O)[nH]1	i	10	-0.2%	-8%	-0.2%	15%
COC(=O)C1C(O)CCC2CN3CCc4c([nH]c5ccccc45)C3CC21 (centres undefined)	i	37	-0.3%	15%	0.0%	-6%
CCCCC1=NC2(CCCC2)C(=O)N1Cc1ccc(-c2ccccc2-c2nn[nH]n2)cc1	i	23	0.9%	7%	-0.5%	15%
CC(=O)O[C@H]1C(=O)[C@@]2(C)[C@H]([C@H](OC(=O)c3ccccc3)[C@]3(O)C[C@H](OC(=O)[C@H](O)[C@@H](NC(=O)c4ccccc4)c4ccccc4)C(C)=C1C3(C)C)[C@]1(OC(C)=O)CO[C@@H]1C[C@@H]2O	i	24	/	/	/	/
CCC(C)(C)C(=O)O[C@H]1C[C@@H](C)C=C2C=C[C@H](C)[C@H](CC[C@@H]3C[C@@H](O)CC(=O)O3)[C@H]21	i	20	-1.9%	-7%	-0.1%	1%
CC(C)(Sc1cc(C(C)(C)C)c(O)c(C(C)(C)C)c1)Sc1cc(C(C)(C)C)c(O)c(C(C)(C)C)c1	i	66	1.4%	0%	-0.1%	1%
O=c1n(CCCN2CCN(c3cccc(Cl)c3)CC2)nc2ccccn12	i	19	-0.1%	7%	-0.2%	12%
CC(C)(C)c1ccc(C(O)CCCN2CCC(C(O)(c3ccccc3)c3ccccc3)CC2)cc1 (centres undefined)	i	62	-1.1%	16%	0.2%	59%
